NPYLR7 agonist: activates Aedes aegypti NPYLR7 receptor. HEK293T NPYLR7/Galpha15, GCaMP6s calcium fluorescence. activation, % at 10 µM. 270,000 tested, 0.15% active; in the data active means activation above about 40%;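 further: 0% = vehicle and 100% = reference agonist at the receptor; some compounds past the cut are filed as inactive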
NPYLR7 agonist max-min: second read-out of NPYLR7 agonist, no call of its own (marks repeat the call); activation, %; measured here: Max-Min RFU normalised activation; some inactives read as strong as hits;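 span of the calcium signal over five minutes; 0% = vehicle and 100% = native peptide agonist; compound fluorescence can raise it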
* hit, by the source's call; & = joins results of further samples. A portion of the library; the hit share may differ from the screen's.

Sequence of screens – NPYLR7 agonist | NPYLR7 agonist max-min
CCCc1cc(=O)[nH]c(-n2nc(C)cc2NC(=O)c2ccc(C)cc2)n1
→ -4.9 | -4.9
O=C(COC(=O)C1CC2CCCC(C1)C2=O)NC1CC1 (stereo not given)
→ 3.7 | 5.1
CC1=C(C(=O)N2CCOCC2)C2(CCC(C)CC2)OC1=O (stereo not given)
→ 11.8 | 10.7
O=C(NCCc1ccccc1)N1CCn2cccc2C1c1ccccc1 (stereo not given)
→ 3.6 | 1.5
COC(=O)C1=C(C)NC2=C(C(=O)CC(c3ccccc3)C2)C1c1ccc2c(c1)OCO2 (stereo not given)
→ -1.4 | -6.0
Cc1nc(CNC(=O)CCCC(C)(C)C)no1
→ -0.7 | -4.6
Cc1cccc(C(=O)Nc2c(C)nc3ccc(Cl)cn3c2=O)c1
→ 3.7 | 2.2
CCOC(=O)c1coc(N2CC[C@@H](N3CCOCC3)[C@H](O)C2)n1
→ 24.3 | 10.0
Cc1ccc2c(c1)=C/C(=C\c1ccnn1C)C=2O
→ 0.9 | -4.4
COCCN(C)C(=O)CCc1nnc(Cc2ccc(-c3ccccc3)cc2)o1
→ 1.7 | -1.6
CCn1c(CCCCCCN)nnc1SC
→ 15.0 | 16.6
CC(C)(C(=O)N1CCCC2(CCNC2)C1)n1cccc1 (stereo not given)
→ 3.5 | 1.3
Cc1ccc(NC(=O)N2CCN(C(C(=O)NCCCN3CCCC3=O)C3CCCC3)CC2)cc1 (stereo not given)
→ -1.7 | 0.5
CCn1cc(C(=O)Nc2ccc(C#N)cc2)c(=O)c2ccc(C)nc21
→ 5.0 | 2.6
CCSc1nc(N)c(C#N)c(-c2ccco2)c1C#N
→ 2.9 | 2.8
CC(=O)c1ccc(S(=O)(=O)N2CCCCC2C(=O)NC(C)C2CC2)cc1 (stereo not given)
→ -0.4 | -2.8
O=c1ccc(-c2ccc(F)cc2)nn1CC(O)c1ccc(OC(F)F)cc1 (stereo not given)
→ 0.5 | -1.1
CCOCC(O)CNC(=O)c1cc(Cl)ccc1OC1CCN(C(C)=O)CC1 (stereo not given)
→ 15.8 | 7.7
Cc1cccc(NC(=O)CSc2ccnc(=O)[nH]2)c1
→ 6.1 | 2.1
CC(OC(=O)c1ccc(Cl)s1)C(=O)Nc1ccc(N(C)C)cc1 (stereo not given)
→ 6.8 | 2.4

Full records, quoted from the list. Order of screens: NPYLR7 agonist, NPYLR7 agonist max-min
Shown for Cc1ccc2c(c1)=C/C(=C\c1ccnn1C)C=2O : 0.9, -4.4
Shown for Cc1cccc(C(=O)Nc2c(C)nc3ccc(Cl)cn3c2=O)c1 : 3.7, 2.2
Shown for CCSc1nc(N)c(C#N)c(-c2ccco2)c1C#N : 2.9, 2.8
Shown for CC(=O)c1ccc(S(=O)(=O)N2CCCCC2C(=O)NC(C)C2CC2)cc1 (stereo not given) : -0.4, -2.8
Shown for CCOCC(O)CNC(=O)c1cc(Cl)ccc1OC1CCN(C(C)=O)CC1 (stereo not given) : 15.8, 7.7

Continued.
Sequence of screens – NPYLR7 agonist | NPYLR7 agonist max-min
COc1cc(=O)n(-c2ccccc2C)nc1C(=O)N1CCN(c2ccccc2)CC1
→ 2.4 | 1.3
O=C(COc1ccccc1)OC1CS(=O)(=O)CC1OC(=O)COc1ccccc1 (stereo not given)
→ 9.5 | 13.0
Cc1ccc(C(O)CN2CCN(C)CC2C)cc1C (stereo not given)
→ 5.0 | 4.6
CC(C)(C)C(=O)Nc1nnc(Cc2ccccc2)s1
→ 9.0 | 2.2
CCCCNS(=O)(=O)c1cccc(NC(=O)c2cc(C)oc2C)c1
→ 9.2&2.7 | 5.0&-1.4
CCCN(C1CCS(=O)(=O)C1)S(=O)(=O)C1=Cc2ccccc2CC1 (stereo not given)
→ 1.2 | 7.9
CO[C@@H]1c2ccccc2C2(CCN(Cc3[nH]cc(C)c(=O)c3C)CC2)[C@H]1O
→ 4.1 | 2.3
COCCOC(=O)C1=C(C)N(C)C(=O)NC1c1ccccc1Cl (stereo not given)
→ 11.3 | 12.1
O=C(CN1CCN(Cc2ccc3c(c2)CCO3)CC1)Nc1c(F)cccc1F
→ 3.0 | 1.9
COc1cc2c(cc1OC)CN(C1CCCN(C(=O)c3cc(C)nc(C)n3)C1)CC2 (stereo not given)
→ 1.9 | -2.2
Cc1cccc(NC(=O)c2c(N)n(/N=C\c3cccnc3)c3nc4ccccc4nc23)c1
→ 4.7 | -1.4
CN(Cc1ccccc1)c1nc2c(c(=O)[nH]c(=O)n2C)n1CCSc1nc2ccccc2o1
→ -0.6 | 12.7
COc1cc2c(c(OC)c1)C(c1cnc3cc(O)ccc3c1)CC(=O)N2 (stereo not given)
→ 8.3 | 6.3
O=C1c2ccc(-c3nc4ccccc4c(=O)o3)cc2C(=O)N1c1ccc(Br)cc1
→ 4.4 | 13.8
COC[C@H]1C[C@H]2C[C@@H](OC)[C@H](N(C)Cc3ccccc3)[C@]2(O)CO1
→ 3.0 | 6.3
C=CCCC(=O)N1CCC(=O)N(C)c2ccccc2C(OC)C1 (stereo not given)
→ 1.8 | 8.1
Cc1ccc(-c2nn3c(C)nnc3c3ccccc23)cc1S(=O)(=O)N1CCCCC1
→ -17.8 | -22.5
CCOc1ccc(C(C2Sc3nc(CC)nn3C2=O)N2CCN(CCO)CC2)cc1 (stereo not given)
→ 0.5 | -3.2
CCC1CCc2nc(NC(=O)CSC(C)C(=O)Nc3cc(C)on3)sc2C1 (stereo not given)
→ 3.1 | 11.9
O=C(/C(Cl)=C/Nc1cccc(S(=O)(=O)N2CCCCC2)c1)C(F)(F)F
→ -0.2 | -2.4
CCCCOC(=O)N1CCC2(CC1)[C@H](C(=O)OCC)[C@@H](OC)C(=O)N2C
→ 16.2 | 11.1
COCCCn1c(C)cc(-c2csc(N)n2)c1C
→ -0.3 | 2.3
CC(C)CSc1nc2c(c(=O)n(C)c(=O)n2C)n1Cc1ccccc1
→ 17.1 | 4.0
Cc1ccc2ncn(C3CCN(C(=O)c4ccc[nH]4)CC3)c2c1
→ 5.2 | 11.7
O=C(CCC1CCCO1)NNC(=O)c1cc(Br)c[nH]1 (stereo not given)
→ 9.9 | 4.5
CCOC(=O)C1=C(C)NC(=S)NC1C (stereo not given)
→ 3.7 | 1.5
Cc1nc(CN2CCCCC2CCc2ccc(O)cc2)no1 (stereo not given)
→ 2.6 | 2.3
CCC1CN(C(=O)NC2CCN(c3cccc(C)n3)CC2)CCS1 (stereo not given)
→ 11.8 | 7.3
O=C1OCCC1N1CCC(c2ccccc2)CC1 (stereo not given)
→ 0.4 | 0.5
FC(F)(F)CCc1ccnc(N2CCC(Nc3ncccn3)CC2)n1
→ -1.8 | -5.7
CCOC(=O)C1CCCN(C(=O)CC(c2cccc(C)c2)c2cn(CC)c3ccccc23)C1 (stereo not given)
→ -1.4 | 3.7
Cc1cc(C)c2ccc(/C=C/c3ccccc3[N+](=O)[O-])nc2c1O
→ -7.3 | -11.3
FC(F)(F)c1cc(-c2cccs2)nc2c3ccccc3nn12
→ 0.5 | -2.4
CC(C)CC(CNCc1cc(Br)cs1)N(C)C (stereo not given)
→ 2.5 | 1.0
CCOc1ccc(C(=O)Oc2coc(CSc3nc(C)cc(C)n3)cc2=O)cc1OCC
→ -17.3 | -10.6
CCC1(c2ccc(Cl)cc2)NC(=O)N(CC(=O)Nc2ccccc2OC)C1=O (stereo not given)
→ 12.4 | 9.7
CC(C)N1CCc2c(c(C(=O)NCCCc3ccccc3)nn2Cc2ccncc2)C1
→ 16.6 | 8.2
CN(CCC1CCCCN1C)C(=O)C1CCCO1 (stereo not given)
→ 2.7 | -7.1
CC(C)(C)NC(=O)c1csc(C(O)c2ccc(C(C)(C)C)cc2)n1 (stereo not given)
→ 6.0 | 3.3
COc1ccc(CC(=O)N2CCC3(CC2)SCCN3C(=O)c2cccc(OC)c2)cc1
→ -8.6 | 0.0
CNC(=S)N(CCc1ccc(OC)c(OC)c1)C1CC(=O)N(c2ccc(C(=O)OC)cc2)C1=O (stereo not given)
→ 2.7 | -0.9
O=C(c1cc(Cl)c[nH]1)N1CCN(CC2CC2)CC1
→ -18.1 | -23.4
Cc1cccc(Nc2cc(N3CCN(CC(=O)Nc4cc(C)nn4C)CC3)ncn2)c1
→ -1.4 | -4.1
Cc1c(Cl)cc(NC(=O)NCCc2ncnn2C)cc1Cl
→ -0.6 | -1.8
O=C(c1ccc(C(F)(F)F)cc1)N1CCCC(N2CCN(c3ccccc3F)CC2)C1 (stereo not given)
→ 3.2 | 12.5
COc1ncc(-c2nccn2C(C)Cc2ccsc2)cn1 (stereo not given)
→ 0.1 | -1.6
CCN(CC)CC(=O)N1CCN(C(=O)C=C(C)C)CC1
→ 7.5 | 6.1
CSc1ccc(-c2nc(CN3C[C@H](O)[C@@H](N4CCOCC4)C3)c(C)o2)cc1
→ -2.8 | -4.8
O=C(CCCCSc1nnc(Cc2ccccc2)n1-c1ccc(Cl)c(Cl)c1)N1CCN(c2cccc(Cl)c2)CC1
→ -7.7 | 1.6
COc1ccc(-c2cc(CC(=O)NCc3cccs3)no2)cc1OC
→ 7.0 | 7.3
Clc1ccc2c(NC3CC3)nc(-c3cccs3)nc2c1
→ 9.2 | 16.5
COCCn1cc(C(=O)N2CCN(c3ccc(F)cc3)CC2)c2nn(-c3ccccc3)c(=O)c-2c1
→ 7.6 | 6.9
C=CCn1c(=O)n(CC=C)c(=O)n(CC(=O)NC(C)COC)c1=O (stereo not given)
→ 1.9 | 7.6
Nc1nc(SCC(=O)Nc2ccc(Cl)c(Cl)c2)[nH]c(=O)c1NC(=O)c1ccccc1
→ -3.0 | -5.4
CCN(CC)S(=O)(=O)c1cccc(C(=O)Nc2nc(-c3ccccc3)c(C)s2)c1
→ -0.6 | -2.9
O=S(=O)(c1ccc(Br)cc1Cl)N1CCc2sccc2C1
→ -5.3 | -4.5
Cc1noc(C)c1CCC(=O)NCc1cc(-c2cccs2)on1
→ -2.8 | -4.5
CCn1nnc2c(NCCCOC(C)C)ncnc21
→ 12.8 | 8.4
CC(=O)Nc1ccc(NC(=O)C(C)N(C)Cc2ccc(C)o2)cc1 (stereo not given)
→ 1.6 | 0.9
CC(C)(O)C#Cc1ccc(C(=O)N2CCCC(C(=O)c3ccc4ccccc4c3)C2)o1 (stereo not given)
→ -1.2 | -5.0

Quoted from the listing.
CCn1nnc2c(NCCCOC(C)C)ncnc21 in NPYLR7 agonist reads 12.8
Cc1c(Cl)cc(NC(=O)NCCc2ncnn2C)cc1Cl in NPYLR7 agonist reads -0.6

Further entries follow.
Sequence of screens – NPYLR7 agonist | NPYLR7 agonist max-min
CC(C)(C)NC(=O)N(Cc1cccc(F)c1)CC1CC(c2ccc(F)cc2)=NO1 (stereo not given)
→ 15.2 | 6.5
O=S(=O)(Nc1ncnc2ccccc12)c1ccc2c(c1)OCCO2
→ -1.2 | 1.0
CC(=O)Nc1ccc(CC2CCN(S(=O)(=O)c3ccc(C#N)cc3)CC2)cc1
→ 2.3 | 3.8
O=C(NCc1ccco1)C1COC2(CCN(C(=O)C3CC3)CC2)N1C(=O)c1ccco1 (stereo not given)
→ 4.0 | 6.0
CN1CCN(c2ncccc2CNC(=O)CCCc2cn[nH]c2)CC1
→ -1.1 | -1.8
C=CCN(Cc1cccnc1)C(=O)C1CCCN1C(=O)C1CCCCC1 (stereo not given)
→ -1.5 | -7.4
Cc1ccc(Cc2nsc(N3CCN(C(=O)Nc4ccc(F)c(Cl)c4)CC3)n2)cc1
→ 14.5 | 14.3
Cc1cccc2[nH]c(CCNC(=O)c3cc(C(C)C)on3)nc12
→ 3.5 | 1.6
Cc1cc(COc2ccccc2)oc1C(=O)N1CCc2c(nc[nH]c2=O)C1
→ 7.3 | 0.8
Cc1c(C(=O)N2CCC3(CC2)C(=O)NCN3c2ccccc2)cnn1-c1ccccc1
→ -10.7 | -15.9
Cc1ccc(C)c(-n2nc(-c3ccc([N+](=O)[O-])cc3)cc2C(=O)N2CCN(C(c3ccccc3)c3ccccc3)CC2)c1
→ -11.2 | -0.5
CCOC(=O)c1sc(-n2c(N)c(C(=O)OCC)c3nc4ccccc4nc32)cc1C
→ -4.5 | -5.7
O=C(Nc1ccccc1C(=O)Nc1nccs1)c1cccs1
→ -1.2 | 21.3
CCCCc1ccc(-c2ccc(-n3cncc3C(=O)NCC(C)(c3ccccc3)c3ccccc3)cc2)cc1
→ -11.3 | -16.5
Cc1ccccc1Oc1cc(N2CCN(C(=O)COCc3ccccc3)C(C)C2)ncn1 (stereo not given)
→ -8.3 | -0.3
O=C(NCC1CC1)c1cc(-c2ccc(Br)cc2)n[nH]1
→ 1.4 | 0.1
Cc1cccnc1CCNC(=O)c1ccc2oc(Cc3ccc(Cl)cc3)nc2c1
→ -5.2 | -8.8
Cc1cccc(C(=O)N(Cc2cc(NC(=O)C(C)C)ccc2N(C)C)C(C)c2ccccc2)c1 (stereo not given)
→ 7.3&-3.8 | 10.6&-2.2
Cc1oc(-c2cccc(F)c2)nc1CN(C)C(C)c1cccs1 (stereo not given)
→ 20.8 | 11.9
Oc1cccc(CN2CCN(c3nccc(C(F)(F)F)n3)CC2)c1
→ 2.3 | 1.5
Cc1ccc(-c2nc3ccccn3c2NC(=O)C2CCC2)cc1
→ -5.3 | -2.8
Cc1nn(-c2ccc(F)cc2)c2nc(CCC(C)C)nc(N3CCN(C(=O)c4ccc5c(c4)OCO5)CC3)c12
→ 5.9 | 3.0
COc1ccc(C(=O)Nc2c3c(nn2-c2cccc(C)c2C)CS(=O)C3)c(OC)c1 (stereo not given)
→ -2.5 | -4.4
CC(C)(C)n1ncc2c(=O)n(NC(=O)CCc3ccccc3)cnc21
→ 1.6 | -2.4

Screens as filed in PubChem.
